# NS1 function inh – influenza NS1 inhibition | S. cerevisiae slowed by influenza A NS1, growth recovery by OD600 | Potency, µM (top dose mostly 46.1 µM), inactives show at the top dose activity, positive = more growth | hit rate 0.4% among 270,000 | AID 2326; further: actives are rising curves; nearly all actives have a fitted effect of over 50% in size
#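 Read-out: OD600 growth recovery of NS1-expressing budding yeast. Cells grown overnight at 30C in -URA glucose medium, washed, resuspended and diluted 1:100 in 2% galactose assay medium, pH 6.0. Same strain lacking NS1 served as positive control.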
# MARV entry inh – blocks Marburg virus binding to or entry into cells; Marburg virus pseudotyped entry inhibition, cell reporter; control for the full effect not named in the record; about a third of the inactives were read at about 46 µM; Potency, µM (highest dose often 37.8 µM), inactives show top-dose activity change, negative = inhibition, usual class: inhibitors; hit rate 1.8% among 300,000; AID 540276; active = well fitted inhibition curve with a large enough effect; inconclusive = small, poorly fitted or top-dose-only effect, or effect the other way; inactive = flat fitted curve, though single readings scatter; tested in HEK293 cells; about a fifth of its hits are not listed in these tables; further: on the % scale 0 is the no-effect control and ±100 the full control effect; luciferase read-out
# LASV entry inh – inhibitors of Lassa virus binding or cell entry. Lassa virus pseudotype entry inhibition, cell reporter; control for the full effect not named in the record. Potency, µM (series often up to 37.9 µM), for inactives: at the highest dose activity change, negative = inhibition, actives largely listed as inhibitors. hit rate 1.2% among 300,000; active means well fitted inhibition curve with a large enough effect; inconclusive means small, poorly fitted or top-dose-only effect, or effect the other way; inactive means flat fitted curve, though single readings scatter; tested in HEK293 cells; further: on the % scale 0 is the no-effect control and ±100 the full control effect; nearly all actives have a fitted effect of over 50% in size; luciferase read-out
# RE007 growth inh – less growth of the S. pombe RE007 Vpr strain; S. pombe RE007 Vpr strain, BacTiter-Glo ATP luminescence, 24 h; control for the full effect not named in the record; Potency, µM (highest dose often 92.2 µM), without a hit: at the highest dose activity change, negative = less growth; hit rate 0.21% among 360,000; active = well fitted falling curve with a large enough effect; inconclusive = small, poorly fitted or top-dose-only effect; inactive = no such curve, though single readings can be large or run the other way;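 further: on the % scale 0 is the no-effect control and ±100 the full control effect; nearly all actives have a fitted effect of over 50% in size; the assay follows cell death caused by Vpr and the record does not say whether a fall means rescue or toxicity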
#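 Fission yeast RE007 carrying one integrated HIV-1 vpr copy, seeded at OD 0.01 in PMG+AL medium with 23 nL pinned compound. Grown 24 h at 30 degrees; viability read by BacTiter-Glo luminescence after 5 min.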
# 2A StopGo – lowers the luciferase signal of an FMDV 2A StopGo reporter; human cells with a luciferase reporter of 2A StopGo recoding; control for the full effect not named in the record; Potency, µM (series often up to 57.9 µM), without a hit: at the highest dose signal change, negative = less light; hit rate 1.2% among 410,000; AID 1159524; active = well fitted falling curve with a large enough effect; inconclusive = small, poorly fitted or top-dose-only effect; inactive = no such curve, though single readings can be large or run the other way; tested in HEK293T cells; further: on the % scale 0 is the no-effect control and ±100 the full control effect; nearly all actives have a fitted effect of over 45% in size; luciferase light after 4 h
# Cruzain inh noDet – blocks cruzain activity in detergent-free assay. hit rate 2.3% among 200,000. purified cruzain, Z-FR-AMC fluorescence, no detergent. Potency, µM, for the others: max response, negative = inhibition, actives largely listed as inhibitors. AID 1476; active means well fitted curve in the direction sought with a large enough effect; inconclusive means small, poorly fitted or top-dose-only effect, or another doubt; inactive means no such curve, though single readings can be large; an effect the other way counts as inactive or inconclusive;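 further: plate controls were enzyme without inhibitor for no effect and buffer without enzyme for full effect; nearly all actives have a fitted effect of over 40% in size; top concentration of the series not given in the record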
# Target sequence (P25779 123-467 limits assumed): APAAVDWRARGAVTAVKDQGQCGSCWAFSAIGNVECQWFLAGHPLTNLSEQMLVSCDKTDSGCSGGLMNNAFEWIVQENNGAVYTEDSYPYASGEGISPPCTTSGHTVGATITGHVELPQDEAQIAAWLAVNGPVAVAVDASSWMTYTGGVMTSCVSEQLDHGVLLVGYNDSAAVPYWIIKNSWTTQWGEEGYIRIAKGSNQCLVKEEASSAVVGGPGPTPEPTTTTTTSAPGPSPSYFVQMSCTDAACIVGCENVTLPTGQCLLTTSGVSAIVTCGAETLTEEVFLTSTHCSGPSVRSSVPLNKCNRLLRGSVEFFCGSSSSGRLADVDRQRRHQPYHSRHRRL
#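 Purified cruzain at 1.5 nM, pre-incubated 15 min with compound at room temperature in 100 mM sodium acetate pH 5.5, 5 mM DTT, 0.00005% Triton X-100. Reaction started with 2 uM Z-FR-AMC; AMC fluorescence increase over 60 s gives rate.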
# SARS PLpro yeast – inhibitors of SARS-CoV papain-like protease in yeast; S. cerevisiae expressing SARS-CoV PLpro, growth rescue; control for the full effect not named in the record; Potency, µM (series often up to 32.9 µM), for inactives: top-dose activity, positive = growth rescue; hit rate 0.19% among 330,000; AID 485353; further: 0% is about no effect; nearly all actives have a fitted effect of over 55% in size; growth read by luminescence after 48 h
# Cruzain Triton – cruzain (T. cruzi) inhibition with detergent; purified cruzain, Z-FR-AMC fluorescence, 0.01% Triton; hit rate 0.43% among 200,000; Potency, µM, for the others: max response, negative = inhibition, usual class: inhibitors; active means well fitted curve in the direction sought with a large enough effect; inconclusive means small, poorly fitted or top-dose-only effect, or another doubt; inactive means no such curve, though single readings can be large; an effect the other way counts as inactive or inconclusive;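 further: plate controls were neutral wells for no effect and buffer without enzyme for full effect; nearly all actives have a fitted effect of over 40% in size; top concentration of the series not given in the record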
#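 Detergent-containing arm of a paired screen for aggregation-based inhibition: 0.01% Triton X-100 present. Cruzain at 1.5 nM cleaved 2 uM Z-FR-AMC at pH 5.5 with 5 mM DTT; AMC fluorescence gain over 60 s measured activity.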
# Numbers without * were called inactive; ? = inconclusive; · = no result given; & = joins results of further samples; [ ] = another dose, or the depositor's remark. Unless noted, the call rests on the fitted dose curve; in most records, active means well fitted rising curve with a large enough effect; inconclusive means small, poorly fitted or top-dose-only effect; inactive means no such curve, though single readings can be large or run the other way. Potency means the concentration at half of the fitted maximal effect. Random draw from the library; any-hit rate near 4.8%.
SMILES	NS1 function inh	MARV entry inh	LASV entry inh	RE007 growth inh	2A StopGo	Cruzain inh noDet	SARS PLpro yeast	Cruzain Triton
Cc1cc(-c2ccc(C)c(S(=O)(=O)NCc3ccc(Br)cc3)c2)on1	-41%	·	·	8%	-7%	·	-11%	·
CCc1ccc(-c2nn(-c3ccccc3)cc2C2SCC(=O)N2Cc2ccco2)cc1 (stereo not given)	22%	-24%	-7%	-4%	-23%	3%	-4%	-4.0%
Cc1cccc(NC(=O)Nc2ccc3c(c2)CCC3)c1	2%	·	·	-2%	48%[activator]	·	-9%	·
C/C(=N/NS(=O)(=O)c1ccc(C)cc1)c1ccc(NC(=O)C(F)(F)F)cc1	7%	5%	1%	-11%	158%[activator]	5%	14%	-7.1%
O=C(O)Cn1c(C(F)(F)F)nc2ccccc21	8%	6%	-13%	-6%	-4%	8%	·	-3.3%
CN(C)S(=O)(=O)c1cccc(NC(=O)COC(=O)c2cn(-c3ccccc3)nc2-c2ccccc2)c1	?	?	-20%	6%	-15%	?	6%	-1.6%
CC1CCN(c2nc3ccc(C(=O)NCCCN4CCCCC4)cc3s2)CC1	-13%	·	·	4%	14%	·	-1%	·
Nc1nonc1C(=O)NCCNCc1cccc(Cl)c1Cl	·	25%[46.1 µM]	24%[46.1 µM]	·	-29%	5%	·	0.1%
CCOc1ccc(N2C(=O)CC(Sc3nc(-c4cccs4)cc(C(F)(F)F)c3C#N)C2=O)cc1 (stereo not given)	-6%	11%	2%	-17%	-10%	13µM*	-4%	-20%
Cc1cc(=O)n2ccccc2c1C#N	-3%	19%	30%	13%	0%	-28%	11%	?
O=C(/C=C/c1cccc([N+](=O)[O-])c1)N1CCN(c2ccccc2F)CC1	-1%	4%	4%	-1%	-15%	-20%	19%	-5.1%
CC(C(=O)Nc1ccccn1)N1C(=O)c2ccccc2S1(=O)=O (stereo not given)	·	-1%	1%	-6%	-26%	·	-2%	·
O=C(c1ccc(Cl)cc1)N1CCc2c([nH]c3ccccc23)C1C(F)(F)F (stereo not given)	-5%	11µM*	?	-10%	-29%	·	-2%	·
CCN1CCN(c2cc(C)c3cc(NC(=O)c4ccc(OC)c(OC)c4)ccc3n2)CC1	4%	?	-1%[46.1 µM]	-11%	9%&6%	-13%&-16%	4%	-1.2%&-3.5%
Cc1ccc([C@@H]2[C@@H]3C(=O)N(C)C(=O)[C@@H]3[C@]3(C)C(=O)N(Cc4ccccc4)CC(=O)N23)o1	15%	·	·	-5%	25%	·	3%	·
CCOc1cc(/C=N/O)cc(Cl)c1OC	-125%	20%	4%	-28%	-11%	-1%	-30%	1.3%
CC1CCCC(C)N1/N=C/c1ccccc1OC(F)F (stereo not given)	·	9%[46.1 µM]	8%[46.1 µM]	-1%	19%	·	-3%	·
C=CCN1C(=O)/C(=C/c2ccc(OC(C)=O)c(OCC)c2[N+](=O)[O-])SC1=S	-11%	?	?	5%	?	·	-4%	·
Cc1cccc(NC(=O)CCNS(=O)(=O)c2cccc3nsnc23)c1C	-1%	5%&0%[46.1 µM]	5%	-10%	12%&20%	-1%	4%	-3.7%
CCOc1ccc(OCC)c(S(=O)(=O)N2CCC(C)CC2)c1	-5%	-4%	1%	1%	37%[activator]	5%	-4%	-2.0%
CCOc1cc(CN2CCN(c3ccc(C(C)=O)cc3)CC2)ccc1OC	11%	-22%	-29%[14.3 µM]	3%	-8%	-5%	-7%	2.7%
Cc1ccc(NC(=O)c2cccc3c2C(=O)N(C2CCCCC2)C3)c(C)c1	-6%	16%&16%[46.1 µM]	29%[46.1 µM]	4%	-9%&2%	-6%	-7%	-0.4%
C=CCn1c(SCC(=O)Nc2nnc(CC)s2)nnc1-c1ccco1	-5%	-5%	25%	-8%	-4%	-5%	0%	-1.7%
COc1ccc(Nc2cc(C)nc3ccccc23)cc1	3%	?	-1%	20%	-15%	5%	·	6.7%
C=C(C)C1CC=C(C)/C(=N\NC(=O)CCc2ccccc2)C1 (stereo not given)	-8%	?	?	8%	-19%	5%	-8%	-2.3%
COCCNC(=O)CCCN1C(=O)c2ccccc2Sc2ncccc21	3%	·	0%[46.1 µM]	-4%	0%&-17%	15%	0%	0.7%
COc1ccc(Nc2nc3ccccc3n3cnnc23)cc1Cl	-4%	-28%[46.1 µM]	25%[46.1 µM]	-4%	-20%	·	0%	·
COC(=O)CSc1nc(N2CCOCC2)c2c(c1C#N)CCCC2	-35%	·	·	-15%	-9%	·	-1%	·
COc1ccc(OC)c(S(=O)(=O)NCCc2sc(-c3cccnc3)nc2C)c1	·	·	10%[46.1 µM]	·	76%[activator]	-9%	·	-3.8%
Cc1ccccc1Nc1nnc(SCC(=O)N(C)C2CCS(=O)(=O)C2)s1 (stereo not given)	17%	?	-2%	-10%	-6%	2%	3%	-3.2%
O=C(CNC(=O)c1ccc(Br)o1)NCc1ccc(Cl)cc1	3%	?	10%[46.1 µM]	-3%	16%	·	-2%	·
CCOc1ccc(NC(=O)CN2CCN(CC(=O)Nc3ccccc3OCC)CC2)cc1	·	·	-5%[46.1 µM]	·	?	6%	·	2.5%
O=C(NC(=S)Nc1nc(-c2ccccc2)cs1)c1cncc(Br)c1	-4%	-18%	?	-9%	·	?	19%	2.2%
O=C(Nc1ccccc1)O/N=C/c1ccncc1	-5%	18%	?	-9%	15%	-6%	0%	3.6%
O=C(Nc1cccc(Cl)c1)N1Cc2ccccc2Oc2ncccc21	·	-1%[46.1 µM]	0%[46.1 µM]	·	-15%	3%	·	-4.3%
CCOc1ccccc1OCC(=O)Nc1ccc(S(=O)(=O)N(C)C)cc1	-6%	-8%	4%	6%	-25%	-5%	-4%	-1.4%
CCc1cccc2c(C(=O)C(NCCOC)c3ccccc3)c[nH]c12 (stereo not given)	-8%	?	?	6%	-10%	·	-2%	·
Cc1cccc(CC(=O)NC2CC(=O)N(c3ccc4c(c3)OCCO4)C2)c1 (stereo not given)	·	·	-9%[46.1 µM]	·	-13%	8%	·	-0.5%
COc1ccc2oc(C(=O)c3ccccc3)c(NC(=O)CN3CCN(C)CC3)c2c1	-46%	-6%&8%	2%	12%	-12%	-7%	-2%	-0.9%
CCOC(=O)Nc1ccc2c(c1)N(C(=O)N(CC)CC)c1ccccc1CC2	-42%	-7%	?	6%	0%	3%	-134%	-3.3%
CCOC(=O)C1=C(COC(=O)/C=C/c2ccccc2)NC(=O)NC1C (stereo not given)	·	?	7%	-8%	-11%	·	-9%	·
O=c1c(C=NCCCn2ccnc2)c(-c2ccccc2)[nH]n1-c1nc2ccccc2s1	12%	-3%&0%	17%	-8%	·	-7%	3%	-3.1%
O=C(NCC(c1cccnc1)N1CCc2ccccc21)c1ccc(Cl)cc1 (stereo not given)	·	·	-2%[46.1 µM]	·	?	5%	·	-0.4%
NNC(=O)C(Cc1ccccc1)NC(=O)OCc1ccccc1 (stereo not given)	11%	-18%[46.1 µM]	-30%	19%	21%	·	-2%	·
Cc1ccc2oc(=O)cc(/C=C/c3ccccc3)c2c1	-21%	?	?	-1%	-24%	-9%	5%	-7.5%
Cn1cccc1/C=N/NC(=O)c1ccc(OC(F)(F)C(F)F)cc1	-4%	?	-1%	16%	48%[activator]	4%	-13%	-6.4%
Cc1nc2c(-c3ccccc3)c(C)nn2c(C)c1CCC(=O)N1CCN(c2ccccc2)CC1	·	8%[46.1 µM]	?	·	-13%	7%	·	0.9%
COC(=O)c1cc(OC)c(OC)cc1NC(=O)c1ccc(OC)cc1	-3%	-1%	-20%	-14%	-26%	?	-4%	-22%
COCCOC(=O)c1c(NC(=O)CN2c3ccccc3CC2C)sc(C(N)=O)c1C (stereo not given)	6%	?	·	1%	-19%	·	-4%	·
Cc1ccc(Oc2ccc(C(F)(F)F)cc2[N+](=O)[O-])c([N+](=O)[O-])n1	-3%	?	?	2%	32%[activator]	·	-2%	·
NP(=O)(OCCCc1ccccc1)Oc1ccccc1Cl (stereo not given)	-29%	·	·	-14%	-10%	·	2%	·
CCCN(CCC)C(=O)c1cc2c(=O)n3cccc(C)c3nc2s1	-5%	-1%&-12%[46.1 µM]	6%&7%[46.1 µM]	-14%	5%&-4%	?	1%	-17%
COc1ccc(/C=C/c2ccc3ccccc3[n+]2C)cc1OC	-2%	·	·	-17%	57%[activator]	·	-4%	·
COCCN(C(=O)Nc1ccc(OC)cc1)c1nc2ccccc2s1	13%	17%[46.1 µM]	6%[46.1 µM]	9%	-1%	·	0%	·
COc1ccc(/C(C)=N/NC(=O)CNC(=O)c2ccco2)c(OC)c1	10%	-2%[46.1 µM]	28%[46.1 µM]	-1%	-8%	·	-4%	·
CCNc1nc(NCC)nc(N(C)n2cnnc2)n1	6%	2%	8%	-13%	-20%	12%	-8%	2.2%
CCN(CC)C(=O)COc1ccc(/C=N/NC(=O)c2cc(-c3ccccc3OC)nc3ccccc23)cc1OC	·	?	11%	6%	0%	·	·	·
CCOC(=O)c1ccccc1NC(=O)Cc1sc(-c2cccnc2)nc1-c1ccc(C)cc1	20%	4%	12%	·	·	6%	0%	-2.8%
COc1cc2c(cc1OC)C(COc1ccc3c(C)cc(=O)oc3c1)N(C(=O)c1ccc(C)cc1)CC2 (stereo not given)	·	?	-30%[46.1 µM]	·	0%	?	·	14%
CN1C(=O)C(C)(C)c2cc(S(=O)(=O)N3CCCCCC3)ccc21	-4%	·	·	-2%	-16%	·	-3%	·
O=C(Cn1cnc2cc([N+](=O)[O-])ccc2c1=O)N1CCN(S(=O)(=O)c2ccccc2)CC1	·	?	-17%[46.1 µM]	-8%	-25%	·	2%	·
CCc1ccc(NC(=O)Cn2c(=O)n(-c3ccccc3)c(=O)c3ccc(C(=O)NCc4ccc5c(c4)OCO5)cc32)cc1	·	?	-27%[46.1 µM]	·	-1%	-4%	·	-2.6%

# Assay outcomes as filed in PubChem BioAssay.
